# High-throughput results from PubChem.
# E coli growth – E. coli growth inhibition, primary screen, OD600; Escherichia coli growth, 23 h; stronger effect = lower value; OD600 absorbance (concentration not given with the values); 330,000 tested, 0.21% active;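 active = OD600 absorbance below the run mean of sample wells minus 3.6 SD, in any replicate, cut at about 0.56 in these data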;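 note: stock transfer was 300 nL into about 60 µL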
# HNF4A DNA FP – change in binding of human HNF4A to DNA, primary screen, biochemical, fluorescence polarization, FITC-DNA. Hepatocyte nuclear factor 4-alpha (Homo sapiens), P41235. 1 h. activity change, % at 10 µM. 360,000 tested, 0.3% active; in the data active = activity change above about 30%, passing the limit was not always enough;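 note: controls were the assay level and a saturating level of protein; the project sought stronger binding though the title names inhibitors; some compounds called inactive have numbers as strong as hits; positive values seem to mean higher polarization but the record does not say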
# Vif TR-FRET – inhibitors of Vif binding to APOBEC3G peptide, primary screen, biochemical, TR-FRET, GST-Vif 1-94, biotin-A3G peptide, dose response retest (AID 1117319); inhibition, %, or IC50 in µM where a hit was titrated; TR-FRET GST-Vif / biotin-A3G peptide binding; higher % means a stronger effect; test concentration not given here; strong numbers were not always called active; 260,000 tested, 0.57% active; Virion infectivity factor (Human immunodeficiency virus type 1 group M subtype B (isolate …;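 active = above the screen mean plus three standard deviations and confirmed in dose response; inconclusive = results disagree or hit not tested in dose response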;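 note: Vif residues 1-94 fused to GST binding biotinylated APOBEC3G peptide 110-148; 0% = full assay without inhibitor and 100% = GST in place of GST-Vif; retest series ran down from 100 µM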
# ALR H2O2 inh – inhibitors of human ALR sulfhydryl oxidase, primary screen, biochemical, H2O2 detection, HRP-luminol luminescence, single point; FAD-linked sulfhydryl oxidase ALR (Homo sapiens), P55789; purified ALR, DTT oxidation; inhibition, % (test concentration not listed); 290,000 tested, 3.8% active;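 active = mean and each replicate at 75% or more; inconclusive = only one of the two met; inactive = neither met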;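 note: stock transfer was 7.5 nL into about 7.5 µL; 0% = neutral wells and 100% = wells with inactivated enzyme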
# Target sequence (P55789 whole entry, looked up): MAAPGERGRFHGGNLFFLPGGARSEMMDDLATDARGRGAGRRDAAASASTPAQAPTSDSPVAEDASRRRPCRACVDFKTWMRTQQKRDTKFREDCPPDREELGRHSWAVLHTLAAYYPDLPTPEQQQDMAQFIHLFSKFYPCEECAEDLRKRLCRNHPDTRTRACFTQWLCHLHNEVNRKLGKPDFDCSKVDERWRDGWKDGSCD
# Ecoli rRNA inh – reduced GFP signal of wild-type E. coli, primary screen, bacterial rRNA inhibitor project, GFP/RFP fluorescence, OD600, single point | E. coli WT GFP vs humanized-ribosome RFP mutants, 24 h; stronger effect = lower value; DMSO median 0, no signal -100 | GFP signal change (wild-type ribosome), % (test concentration not listed) | 350,000 tested, 1.6% active | AID 720706, 2013;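 active = significant combined selectivity score with lowered wild-type GFP, culture density cut under 30%, mutant RFP and density less affected; inactive = any of these conditions unmet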; note: one replicate is shown; some compounds called inactive have numbers as strong as hits
# MLL AF4-AF9 inh – inhibitors of AF4 peptide binding to AF9, primary screen, biochemical, AlphaScreen, biotin-AF4 peptide, FLAG-AF9, single point. 350,000 tested, 0.47% active. inhibition, % at 10 µM. AID 651704, 2012;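 active = every replicate reaching a set inhibition limit, whatever the replicate mean, cut at about 25% in these data; inconclusive = mean inhibition reaches that limit but some replicates miss it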;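 note: 0% = plate neutral control median and 100% = total signal loss; the record names both 10 and 1 µM as test concentration; the first replicate is given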
# Target sequence (P42568 whole entry, looked up): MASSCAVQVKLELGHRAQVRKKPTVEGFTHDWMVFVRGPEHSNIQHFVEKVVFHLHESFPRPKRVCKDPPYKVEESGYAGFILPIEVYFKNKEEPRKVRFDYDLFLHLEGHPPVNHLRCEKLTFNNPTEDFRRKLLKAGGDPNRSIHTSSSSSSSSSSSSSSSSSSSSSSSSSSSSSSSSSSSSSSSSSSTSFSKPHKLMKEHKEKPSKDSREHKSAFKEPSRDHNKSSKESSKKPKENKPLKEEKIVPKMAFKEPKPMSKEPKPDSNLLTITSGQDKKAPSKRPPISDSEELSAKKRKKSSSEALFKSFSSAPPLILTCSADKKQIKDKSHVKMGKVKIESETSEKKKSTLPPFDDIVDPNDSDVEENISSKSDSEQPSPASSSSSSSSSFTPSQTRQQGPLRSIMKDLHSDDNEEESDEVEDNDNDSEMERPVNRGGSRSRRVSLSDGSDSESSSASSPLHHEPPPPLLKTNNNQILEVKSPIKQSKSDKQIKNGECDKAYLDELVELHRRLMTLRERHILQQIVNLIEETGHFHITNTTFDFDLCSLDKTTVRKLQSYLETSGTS
# FGF22 binding – binders of human FGF22 protein, primary screen, FGF22 synaptogenesis inhibitor project, biophysical, thermal shift, single point. 340,000 tested, 1.5% active. calls only at 9.99 µM. Fibroblast growth factor 22 (Homo sapiens), Q9HCT0. recombinant FGF22 thermal shift, SYPRO orange fluorescence; percent of sucrose octasulfate shift, DMSO zero. AID 651658, 2012;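 active = melting point raised past a set limit in the mean and every replicate; inconclusive = no clear call; three in four hits are not shown here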
# Target sequence (Q9HCT0 whole entry, looked up): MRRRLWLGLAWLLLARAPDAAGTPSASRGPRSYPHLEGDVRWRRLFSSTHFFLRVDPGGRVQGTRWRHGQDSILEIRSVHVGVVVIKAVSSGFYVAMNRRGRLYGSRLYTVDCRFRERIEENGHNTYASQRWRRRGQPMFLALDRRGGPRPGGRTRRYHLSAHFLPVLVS
# Ecoli rRNA inh OD600 – also measured in Ecoli rRNA inh; calls as there; OD600 change, %; measured here: OD600 growth;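 optical density of the mix in the first replicate; 0 = DMSO median and -100 = no signal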
# Ecoli rRNA inh RFP – also measured in Ecoli rRNA inh; calls as there; RFP signal change, %; measured here: RFP humanized mutant strains;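 first replicate; 0 = DMSO median and -100 = no signal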
# Numbers without * were called inactive; i = inactive; ? = inconclusive; · = not tested or not shown; + = active, no number.
SMILES,E coli growth,HNF4A DNA FP,Vif TR-FRET,ALR H2O2 inh,Ecoli rRNA inh,Ecoli rRNA inh OD600,Ecoli rRNA inh RFP,MLL AF4-AF9 inh,FGF22 binding
Cc1ccc(S(=O)(=O)NCCNc2ccccc2[N+](=O)[O-])cc1,0.7,2.9,·,1,-24,-25,-1.8,3.7,i
COc1ncnc2c1ncn2CCCNCC(C)c1ccccc1 (stereo not drawn),·,-3.4,4%,·,5,5,0.0,-1.2,i
CCCN(C(=O)CSc1cc(-c2ccccc2)c2ccc(OC)cc2n1)C1CCS(=O)(=O)C1 (stereo not drawn),0.73,3.4,3%,0,·,·,·,·,·
CN(C)C(CNC(=O)CCNC(=O)c1ccccc1Cl)c1ccco1 (stereo not drawn),0.68,-2.2,6%,-2,6,16,-1.5,-9.1,i
CCc1ccc(NC(=O)CNC(=O)[C@@H]2Cc3ccccc3CN2C(=O)OC(C)(C)C)cc1,0.69,4.6,·,-7,6,6,-0.9,1.5,i
Cc1ccc(S(=O)(=O)C(C#N)=C2N(C)c3ccccc3N2C)cc1,0.7,-7.7,30%,-5,17,10,2.3,-1.9,i
CC(C)n1ncc2c(C(=O)NCCOc3ccccc3F)cc(C3CC3)nc21,0.69,-2.7,·,-13,·,·,·,-0.1,i
CCOC(=O)C(=O)N=Nc1c(O)n(C)c2ccccc12,0.66,1.5,0%,3,13,13,-0.2,-1.9,i
COc1ccc(-c2c(C(C)=O)c(C)nc3sc4c(c23)NC(c2ccccc2)NC4=O)cc1 (stereo not drawn),0.75,2.1,-4%,0,·,·,·,·,·
COc1ccc(CN(C)C[C@H]2Oc3ccc(NS(C)(=O)=O)cc3CC(=O)N([C@H](C)CO)C[C@@H]2C)cc1,·,·,·,·,4,6,-0.8,0.3,i
Cc1ccc(S(=O)(=O)Nc2cccc3c2O[C@@H](CN(C)C(=O)NC(C)C)[C@@H](C)CN([C@@H](C)CO)C3=O)cc1,·,·,·,·,3,10,1.9,-1.2,i
CCOc1ccc2c(C)c(Cl)c(=O)oc2c1,0.77,-1.3,-2%,-10,·,·,·,·,·
CNC(=O)C1(C(F)(F)F)C/C(=C\CCO)CCCO1 (stereo not drawn),·,1.1,·,-14,5,2,11,3.2,i
COc1ccc(NC(=O)Nc2cccc3c2O[C@H](CN(C)S(=O)(=O)c2ccc(Cl)cc2)[C@@H](C)CN([C@@H](C)CO)C3=O)cc1,·,·,·,·,0,4,-1.4,1.5,i
COc1ccc2[nH]c(C)c(CCN(Cc3cccs3)C(=S)Nc3ccc(F)cc3)c2c1,0.71,-3.7,15%,-18,·,·,·,·,·
CCOc1cc(C(c2c(C)[nH][nH]c2=O)c2c(C)[nH][nH]c2=O)cc(Br)c1OC,0.64,-3.6,2%,32,13,12,0.5,-3.2,i
COC(=O)c1ccc(CN(C(=O)N2CCN(C)CC2)S(=O)(=O)c2ccc(C)cc2)cc1,0.6,-1.1,2%,-11,2,6,-2.9,-4.8,i
COc1ccc(N(CC(=O)NCCSc2ccccn2)S(C)(=O)=O)cc1Cl,0.7,3.4,5%,-6,·,·,·,·,·
CCOc1ccccc1NC(=O)C1CCCN(S(=O)(=O)c2cccc3nsnc23)C1 (stereo not drawn),0.73,1.8,2%,-3,·,·,·,·,·
Cc1ccc(S(=O)(=O)N2CCOCC2)cc1NC(=O)c1cc([N+](=O)[O-])ccc1N1CCOCC1,0.69,0.4,-5%,-10,3,8,-0.9,2.8,i
Cc1ccccc1C1N(c2nccs2)C(=O)C2CCCN21 (stereo not drawn),0.68,-4.8,?,0,4,6,1.3,-4.6,i
COC(=O)c1[nH]c2ccc(C)cc2c1NS(=O)(=O)c1ccc(F)cc1,0.76,25,1%,79*,·,·,·,·,·
COc1ccc(N2CCN(C(=O)c3ccc(CS(=O)Cc4ccc(C)cc4)o3)CC2)cc1 (stereo not drawn),0.69,-0.1,·,-4,-4,-19,-1.6,7.3,i
O=C(c1ccccc1)C1CCN(C(=O)c2c(F)cccc2F)CC1,0.7,0.3,3%,·,4,0,1.7,-2.6,i
CCN1C(=O)[C@H]2[C@H]3CN=C(SCc4ccc(OC)cc4)N3[C@@](CC)(C(=O)OC)[C@H]2C1=O,0.68,1.4,6%,·,4,13,-4.9,1.7,·
Cc1nc2ccc(NC(=O)c3ccc(C)c(S(=O)(=O)N4CCOCC4)c3)cc2s1,0.68,6.2,-6%,2,-5,6,3.4,3.1,+
CCOC(=O)CNC(=O)c1nn(-c2cccc(OC)c2)c(=O)c2ccccc12,0.74,-1.2,15%,-18,·,·,·,·,·
COc1ccc(NC(=O)Nc2ccc3c(c2)C(=O)N([C@H](C)CO)C[C@H](C)[C@H](CN(C)C(=O)Cc2ccccc2)OCCCC[C@@H](C)O3)cc1,·,·,·,·,5,-2,1.9,0.0,i
Nc1ccc(S(=O)(=O)NCC(=O)OC2CCOC2=O)cc1[N+](=O)[O-] (stereo not drawn),0.66,-5.7,·,-1,24,5,1.2,-1.6,i
CC(=O)N1CCN(C(=O)CCc2nc3sc4c(c3c(=O)[nH]2)CCCC4)CC1,0.68,1.0,-7%,-9,·,·,·,·,·

# Complete entries from above:
# `Cc1ccc(S(=O)(=O)C(C#N)=C2N(C)c3ccccc3N2C)cc1` is listed with E coli growth = 0.7; HNF4A DNA FP = -7.7; Vif TR-FRET = 30%; ALR H2O2 inh = -5; Ecoli rRNA inh = 17; Ecoli rRNA inh OD600 = 10; Ecoli rRNA inh RFP = 2.3; MLL AF4-AF9 inh = -1.9; FGF22 binding = i
# `CC(=O)N1CCN(C(=O)CCc2nc3sc4c(c3c(=O)[nH]2)CCCC4)CC1` is listed with E coli growth = 0.68; HNF4A DNA FP = 1.0; Vif TR-FRET = -7%; ALR H2O2 inh = -9; Ecoli rRNA inh = ·; Ecoli rRNA inh OD600 = ·; Ecoli rRNA inh RFP = ·; MLL AF4-AF9 inh = ·; FGF22 binding = ·

# Further structures follow:
SMILES,E coli growth,HNF4A DNA FP,Vif TR-FRET,ALR H2O2 inh,Ecoli rRNA inh,Ecoli rRNA inh OD600,Ecoli rRNA inh RFP,MLL AF4-AF9 inh,FGF22 binding
CCCCn1nnnc1C(c1ccccc1)N1CCN(c2ccc(OC)cc2)CC1 (stereo not drawn),·,-5.5,·,·,-4,-19,-4.0,11,i
CC1(C)CC(=O)C2=C(C1)OC(N)=C(C#N)C2c1ccccc1 (stereo not drawn),0.73,0.2,4%,6,0,-6,-2.0,·,·
O=C(NC1CCCC1)C1CCCN(S(=O)(=O)c2cnc[nH]2)C1 (stereo not drawn),0.74,4.7,-4%,96*,-4,2,0.3,7.5,i
CO[C@@H]1CN(C)C(=O)c2ccc(NS(=O)(=O)c3ccccc3)cc2OC[C@@H](C)N(C(=O)NC(C)C)C[C@@H]1C,·,·,·,·,-1,-2,-1.5,-2.1,i
O=C(Cc1ccc(F)cc1)Nc1cccc(-c2cn3c(n2)SCC3)c1,0.67,-1.3,·,6,-5,4,-0.1,7.2,i
CCn1c(/C=C/c2ccc(O)c(O)c2)nc2ccccc2c1=O,0.69,4.5,23%,100*,-3,-22,-0.1,5.2,i
C[C@@H]1CN([C@@H](C)CO)C(=O)c2cc(-c3cccc(F)c3)cnc2O[C@H]1CN(C)C(=O)Nc1cc(F)ccc1F,·,·,·,·,-6,-4,1.4,7.8,i
Cc1ccc(OC(=O)C(F)(F)F)c2c1NCCC2,0.64,-0.5,?,63,·,·,·,·,·
Cc1cccc(C(=O)NC(=S)NNC(=O)c2ccc(Cl)cc2)c1,0.65,-2.2,-9%,96*,·,·,·,·,·
CCN(CC)c1ccc(NC(=O)COc2ccc(C#N)cc2)cc1S(=O)(=O)Nc1ccc(OC)cc1,0.73,0.6,23%,1,-11,1,-2.2,-24,i
CCCCCCC(=O)N1C/C=C\C(c2ccc(OC)cc2)N(Cc2ccc(F)cc2)C(=O)C1 (stereo not drawn),·,-1.0,·,·,-20,-30,26,-5.5,i
Cc1ccc2c(c1)c1c3n2CCN(CC(O)CNC(C)C)C3CCC1 (stereo not drawn),0.69,-4.2,32%,·,5,5,1.3,20,i
Cn1cc(/C=C2/SC(=O)N(c3ccccc3)C2=O)c2ccccc21,0.64,12,?,2,·,·,·,·,·
Cc1cc(S(=O)(=O)Nc2ccc(C(=O)NCC3CCCO3)cc2)ccc1F (stereo not drawn),·,3.5,·,1,3,-6,21,0.8,i
C=C(C)CCC(C)N1CCC(n2nccc2NC(=O)CCCc2ccccc2)CC1 (stereo not drawn),0.7,0.3,·,-4,1,-10,-0.7,-1.5,i
COc1ccc(CCC(C)NCC2CCCCC2)cc1 (stereo not drawn),0.67,-2.0,8%,-19,7,-1,-3.5,-3.1,i
COc1cc(C(=O)NC2CCN(C)CC2)ccc1Nc1ncc2c(n1)N(Cc1ccccc1)CCC(=O)N2C,·,5.4,·,·,-5,1,-6.6,14,i
CCOC(=O)c1cc(NC(=O)c2cc(C)on2)cc(C(=O)OCC)c1,0.72,-0.8,-6%,-18,·,·,·,·,·
C[C@@H]1CN([C@@H](C)CO)C(=O)c2c(c3ccccc3n2C)-c2ccccc2CO[C@H]1CN(C)S(=O)(=O)c1ccc(F)cc1,·,·,·,·,0,1,1.5,3.5,i
COc1ccc(NC(=O)N(C)C[C@H]2OCCCC[C@H](C)Oc3ccc(NS(=O)(=O)c4ccccc4)cc3C(=O)N([C@@H](C)CO)C[C@H]2C)cc1,·,·,·,·,1,-1,-0.3,-1.3,i
C[C@H]1CN(S(=O)(=O)C(C)(C)C)[C@H](CCO)/C1=C\CCO,·,·,·,·,6,13,-1.3,-4.8,i
CSc1ccc(NC(=O)NCCCN2CCC(Cc3ccccc3)CC2)cc1,0.59,-6.2,2%,13,-62,-78,-4.1,13,i
O=C(Cc1ccccc1)N1CC[C@@H]2[C@H](CO)Nc3ccc(Br)cc3[C@@H]21,·,·,·,·,-2,0,5.5,1.3,i
CCCCNC(=S)NCc1ccc2c(c1)cc(C)n2C,0.78,3.8,-5%,32,0,5,35,6.1,i
COc1ccc(-n2c(SCC(=O)C(C)(C)C)nc3c(sc(=S)n3-c3ccccc3)c2=O)c(OC)c1,0.72,1.9,-8%,-2,6,15,-1.0,4.7,i
COc1ccc(C(=O)OCC(=O)NCc2ccccc2)c(OC)c1OC,0.71,0.2,·,7,·,·,·,·,·
CCOC(=O)CSc1nnc(-c2cc(OC)c(OC)c(OC)c2)o1,0.71,-1.9,·,0,1,-1,-0.2,-0.9,i

# 2 of the compounds above, bar-delimited:
smiles | E coli growth | HNF4A DNA FP | Vif TR-FRET | ALR H2O2 inh | Ecoli rRNA inh | Ecoli rRNA inh OD600 | Ecoli rRNA inh RFP | MLL AF4-AF9 inh | FGF22 binding
COc1ccc(NC(=O)N(C)C[C@H]2OCCCC[C@H](C)Oc3ccc(NS(=O)(=O)c4ccccc4)cc3C(=O)N([C@@H](C)CO)C[C@H]2C)cc1 | · | · | · | · | 1 | -1 | -0.3 | -1.3 | i
C[C@H]1CN(S(=O)(=O)C(C)(C)C)[C@H](CCO)/C1=C\CCO | · | · | · | · | 6 | 13 | -1.3 | -4.8 | i

# Not all compounds are listed (hit frequency here may not be typical).
